HIV Env fusion = HIV envelope-mediated fusion inhibition; HeLa-JRFL Env/CEM21 cell fusion, luciferase; inhibition, % at 12.3 µM; actives 1.1% (n = 360,000);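 active = mean replicate inhibition score of at least 50 and every replicate individually at or above 50; inconclusive = only one of the two criteria met; inactive = mean below 50 and not all replicates reaching 50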;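 also: 0% = plate neutral controls and 100% = maraviroc near 300 nM; one replicate is shown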
The depositor's hits bear a star; ? = inconclusive; [ ] = remark or other dose.

SMILES | HIV Env fusion
O=C(N[C@@H]1CC[C@H](CCNS(=O)(=O)Cc2ccccc2)O[C@@H]1CO)c1cnccn1 | -13[16.7 µM]
CCCNC(=O)N1C[C@H](C)[C@H](OC)CN(C)C(=O)c2cc(NS(C)(=O)=O)ccc2OC[C@@H]1C | -4[16.7 µM]
CNC[C@@H]1Oc2c(NC(=O)C3CC3)cccc2C(=O)N([C@@H](C)CO)C[C@H]1C | -6[16.7 µM]
CC(C)(C)[S@](=O)N1Cc2cc(C(=O)NCc3ccccc3F)nc(-c3cccc(-c4cncnc4)c3)c2[C@@H]1CCO | 15[16.7 µM]
O=C(C[C@H]1C[C@H]2c3cc(NS(=O)(=O)c4ccc(F)cc4)ccc3O[C@H]2[C@H](CO)O1)NCc1cccnc1 | -30[16.7 µM]
C[C@@H]1CCCCO[C@@H](CN(C)C)[C@@H](C)CN([C@H](C)CO)C(=O)c2cc(NC(=O)CCCN(C)C)ccc2O1 | 27[16.7 µM]
O=C(N[C@H](C(=O)N1CCC[C@H]1C(=O)NC1CCCC1)C1CCCCC1)C1CCCC1 | -7
CO[C@H]1CN(C)C(=O)c2ccc(NC(C)=O)cc2OC[C@H](C)N(S(=O)(=O)c2cn(C)cn2)C[C@@H]1C | 16[16.7 µM]
CCCNC(=O)Nc1ccc2c(c1)C(=O)N(C)C[C@@H](OC)[C@@H](C)CN(Cc1ccncc1)[C@@H](C)CO2 | 10[16.7 µM]
CN1CCN(C(=O)C[C@H]2C[C@@H]3c4cc(NC(=O)Cc5ccncc5)ccc4O[C@@H]3[C@@H](CO)O2)CC1 | 8[16.7 µM]
CC(C)NC(=O)NCC[C@@H]1CC[C@@H](NS(=O)(=O)c2ccc(Oc3ccccc3)cc2)[C@@H](CO)O1 | -4[16.7 µM]
CCCCCCC12Cc3cc(OC)c(OC)cc3C(O1)C1=C(O2)C(C)(C)CCC1=O (configuration not stated) | ?
CC(C)NC(=O)N(C)C[C@@H]1OCCCC[C@@H](C)Oc2ccc(NC(=O)CCCN(C)C)cc2C(=O)N([C@H](C)CO)C[C@H]1C | -1[16.7 µM]
C[C@H](NC(=O)C[C@@H]1C[C@@H]2c3cc(NC(=O)c4cccnc4)ccc3O[C@@H]2[C@H](CO)O1)c1ccccc1 | 7[16.7 µM]
C[C@H](CO)N1C[C@H](C)[C@H](CN(C)Cc2ccc(Cl)c(Cl)c2)Oc2ccc(NC(=O)CCN3CCOCC3)cc2C1=O | -1[16.7 µM]
COC(=O)c1cc2c(c3c4cc(OC)ccc4n(S(=O)(=O)c4ccc(C)cc4)c13)C(=O)N(Cc1ccccc1)C2 | ?
COc1ccccc1CNC(=O)C[C@H]1CC[C@H]2[C@@H](COC[C@@H](O)CN2C(=O)Nc2ccc(F)cc2)O1 | -15[16.7 µM]
C[C@@H]1CN([C@H](C)CO)C(=O)Cc2cc(NS(=O)(=O)c3cccs3)ccc2O[C@H]1CN(C)S(=O)(=O)c1cccs1 | -8[16.7 µM]
O=C(Nc1ccc2c(c1)[C@@H]1C[C@H](CC(=O)N3CCCCC3)O[C@H](CO)[C@@H]1O2)C1CCOCC1 | ?
C[C@@H]1CN([C@@H](C)CO)C(=O)c2cc(NS(=O)(=O)c3ccccc3)ccc2O[C@H]1CN(C)C(=O)Nc1ccc(C(F)(F)F)cc1 | -14[16.7 µM]
CO[C@@H]1CN(C)C(=O)c2ccc(NS(=O)(=O)c3ccccc3F)cc2OC[C@H](C)NC[C@H]1C | -5[16.7 µM]
O=C(C[C@@H]1CC[C@H](NC(=O)c2cccc(F)c2)[C@@H](CO)O1)NCCN1CCCC1 | -11[16.7 µM]
C[C@@H](NC(=O)C[C@H]1CC[C@@H](NC(=O)c2cccnc2)[C@@H](CO)O1)c1ccccc1 | 3[16.7 µM]
CO[C@H]1CN(C)C(=O)c2cc(NS(=O)(=O)c3cn(C)cn3)ccc2OC[C@@H](C)N(CCC(F)(F)F)C[C@@H]1C | 5[16.7 µM]
C[C@@H]1CN([C@H](C)CO)C(=O)c2cc(-c3ccc(C(=O)N(C)C)cc3)cnc2O[C@H]1CN(C)C(=O)c1ccncc1 | -15[16.7 µM]
SMILES | HIV Env fusion
CC(C)[C@@H](C)NC(=O)N(C)C[C@H]1OCc2ccccc2-c2ccccc2C(=O)N([C@@H](C)CO)C[C@H]1C | -9[16.7 µM]
O=C(NC1CCC1)[C@H]1[C@H](CO)[C@H]2Cn3c(ccc(-c4ccc(F)cc4)c3=O)[C@H]2N1Cc1ccccn1 | -2[16.7 µM]
C[C@H](CO)N1C[C@H](C)[C@H](CN(C)C(=O)[C@H](Cc2ccccc2)N(C)C)OCc2ccccc2-c2c(n(C)c3ccccc23)C1=O | 46[16.7 µM]
COC(=O)[C@]12C[C@H](CC(=O)NCc3ccc(OC)c(OC)c3)C(=O)N(Cc3ccccc3)C1=C[C@H](C(C)(C)C)O[C@@H]2C | 88*
COc1ccc(NC(=O)N2CCC3(CC2)CN(C(C)=O)[C@@H](CO)c2[nH]c4cc(OC)ccc4c23)cc1 | 9[16.7 µM]
C[C@H](CO)N1C[C@H](C)[C@H](CN(C)C(=O)Cc2ccccn2)Oc2ncc(-c3ccc(F)cc3)cc2C1=O | -7[16.7 µM]
COC(=O)[C@]12C[C@H](CC(=O)N3CCCCC3)C(=O)N(Cc3ccc4c(c3)OCO4)C1=C[C@H](COCc1ccccc1)O[C@@H]2C | -21
CCCNC(=O)N1C[C@@H](C)[C@@H](OC)CN(C)C(=O)c2cc(NC(=O)CCC)ccc2OC[C@H]1C | 2[16.7 µM]
C[C@@H]1CN([C@H](C)CO)C(=O)c2ccccc2-c2ccccc2CO[C@@H]1CN(C)S(=O)(=O)c1ccc(C(F)(F)F)cc1 | -23[16.7 µM]
CCCN1[C@H](C(=O)N2CCN(C)CC2)[C@@H](CO)[C@@H]2Cn3c(ccc(-c4ccccc4F)c3=O)[C@@H]21 | 11[16.7 µM]
CN(C)C(=O)C[C@@H]1CC[C@@H]2[C@@H](COc3ccc(NC(=O)NCc4ccccc4)cc3C(=O)N2C)O1 | 1[16.7 µM]
Cc1noc(C)c1S(=O)(=O)Nc1ccc2c(c1)C(=O)N([C@@H](C)CO)C[C@@H](C)[C@H](CN(C)Cc1ccc(C(F)(F)F)cc1)OCCCC[C@@H](C)O2 | 35[16.7 µM]
CO[C@H]1CC[C@@H]2CCOc3c(C#N)cccc3C(=O)N(C)CC3(CCCCC3)CC(=O)N(C)C[C@@H]1O2 | 29[16.7 µM]
CO[C@@H]1CC[C@@H]2CCN(C)C(=O)CCCN(C)C(=O)c3cccc(C#N)c3OC[C@H]1O2 | 11[16.7 µM]
Nc1ccn([C@@H]2O[C@H](C(=O)NCC(=O)N3CCOCC3)[C@@H](O)[C@H]2O)c(=O)n1 | -10
O=C(Nc1ccc2c(c1)[C@H]1C[C@@H](CC(=O)N3CCCCC3)O[C@H](CO)[C@H]1O2)NC1CCCC1 | -15[16.7 µM]
COc1cccc(S(=O)(=O)N[C@H]2CC[C@H](CCN)O[C@H]2CO)c1 | 26[16.7 µM]
COc1ccc(NC(=O)N(C)C[C@H]2Oc3ccc(N(C)C)cc3CC(=O)N([C@@H](C)CO)C[C@H]2C)cc1 | 9[16.7 µM]
Cc1cccc(CN(C)C[C@H]2OCc3cn(nn3)CCCC(=O)N([C@@H](C)CO)C[C@H]2C)c1 | -16[16.7 µM]
O=C(N[C@@H](Cc1cccnc1)C(=O)N1CCC[C@H]1C(=O)NCc1ccccc1)c1ccc(Cl)cc1Cl | 0
CN(C)C(=O)C[C@H]1CC[C@H]2[C@@H](COC[C@H](O)CN2C(=O)C2CCCC2)O1 | 1[16.7 µM]
N#C[C@@H]1[C@@H](c2ccccc2-c2cccc(F)c2)[C@@H](CO)N1C(=O)NC1CCCCC1 | -27[16.7 µM]
CN1C(=O)c2cc(NS(=O)(=O)c3cccc(F)c3)ccc2OC[C@@H]2O[C@H](CC(=O)N3CCc4ccccc4C3)CC[C@H]21 | 22[16.7 µM]
COc1ccc2c3c(n(C)c2c1)[C@@H](CO)N(C(=O)NC(C)C)CC31CCN(C(=O)NC(C)C)CC1 | -16[16.7 µM]
CCCC(=O)Nc1ccc2c(c1)OC[C@@H](C)N(Cc1ccccn1)C[C@@H](C)[C@H](OC)CN(C)C2=O | -15[16.7 µM]

3 entries drawn at random from the list so far:
SMILES | HIV Env fusion
CN(C)C(=O)C[C@H]1CC[C@H]2[C@@H](COC[C@H](O)CN2C(=O)C2CCCC2)O1 | 1[16.7 µM]
CO[C@@H]1CC[C@@H]2CCN(C)C(=O)CCCN(C)C(=O)c3cccc(C#N)c3OC[C@H]1O2 | 11[16.7 µM]
Cc1noc(C)c1S(=O)(=O)Nc1ccc2c(c1)C(=O)N([C@@H](C)CO)C[C@@H](C)[C@H](CN(C)Cc1ccc(C(F)(F)F)cc1)OCCCC[C@@H](C)O2 | 35[16.7 µM]

New compounds follow:
SMILES | HIV Env fusion
COc1ccccc1CNC(=O)C[C@H]1C[C@@H]2c3cc(NC(=O)CN(C)C)ccc3O[C@@H]2[C@@H](CO)O1 | -1[16.7 µM]
O=C(CC1CCCC1)N[C@@H](Cc1cccnc1)C(=O)N1CCC[C@H]1C(=O)NC1CCCC1 | -7
C/C=C/c1ccc([C@@H]2[C@H](CO)N(C(=O)CN(C)C)C23CN(C(=O)C2CCCCC2)C3)cc1 | -7[16.7 µM]
COC(=O)C1=C(C)N(Cc2ccc(C(F)(F)F)cc2)C(=NCc2ccccc2)NC1c1cccc(Cl)c1 (configuration not stated) | ?
CCCN1[C@@H]2Cn3c(ccc(-c4cccnc4)c3=O)[C@H]1[C@@H](C(=O)NCCc1cn(C)cn1)[C@@H]2CO | -15[16.7 µM]
CCCN1[C@H](C(=O)NC2Cc3ccccc3C2)[C@@H](CO)[C@@H]2Cn3c(ccc(C4=CCCCC4)c3=O)[C@@H]21 | 7[16.7 µM]
CC(=O)N1CC2(C1)[C@H](c1ccc(-c3cccc(F)c3)cc1)[C@@H](CO)N2CC1CC1 | -22[16.7 µM]
COC(=O)c1cccc(Nc2cc(C)n(-c3cccc(C(=O)OC)c3)c(=O)c2)c1 | 15
C/C=C/c1cnc2c(c1)C(=O)N([C@H](C)CO)C[C@@H](C)[C@H](CN(C)Cc1ccc3c(c1)OCO3)O2 | -3[16.7 µM]
CO[C@@H]1CN(C)C(=O)c2cc(NC(=O)Nc3c(C)noc3C)ccc2OC[C@H](C)N(C)C[C@H]1C | -13[16.7 µM]
CCOC(=O)CN1CCCc2nc(-c3ccc(OC)cc3)ccc21 | -46
C[C@@H]1CN([C@@H](C)CO)C(=O)c2cccc(NC(=O)C3CCCCC3)c2O[C@H]1CN(C)S(=O)(=O)c1cn(C)cn1 | -6[16.7 µM]
C[C@@H]1CN([C@@H](C)CO)C(=O)c2cc(NC(=O)CCCN(C)C)ccc2O[C@@H]1CN(C)Cc1ccc(Oc2ccccc2)cc1 | -4[16.7 µM]
O=C(C[C@H]1CC[C@@H]2[C@H](COC[C@@H](O)CN2Cc2cc(F)ccc2F)O1)N[C@@H]1CCN(Cc2ccccc2)C1 | -44[16.7 µM]
Cc1noc(C)c1NC(=O)Nc1ccc2c(c1)C(=O)N([C@H](C)CO)C[C@H](C)[C@@H](CN(C)C)OCCCC[C@H](C)O2 | 0[16.7 µM]
COc1ccc2c3c([nH]c2c1)[C@H](CO)N(S(C)(=O)=O)CC31CN(CC2CC2)C1 | 4[16.7 µM]
O=C(C[C@@H]1C=C[C@H](NC(=O)C2CC2)[C@H](CO)O1)NC1CCC1 | -11[16.7 µM]
COc1ccc(NC(=O)N(C)C[C@@H]2Oc3c(NC(=O)Nc4ccc(C(F)(F)F)cc4)cccc3C(=O)N([C@@H](C)CO)C[C@H]2C)cc1 | ?
C[C@H]1[C@@H](c2ccccc2)Oc2ccc(Cl)cc2S(=O)(=O)N1Cc1cccc(F)c1 | 28
O=C(Nc1ccc2c(c1)[C@@H]1C[C@@H](CC(=O)N3CCOCC3)O[C@H](CO)[C@@H]1O2)Nc1ccccc1F | -52[16.7 µM]
CO[C@@H]1CN(C)C(=O)c2ccc(NC(=O)C3CC3)cc2OC[C@@H](C)N(Cc2cccc(F)c2)C[C@@H]1C | -13[16.7 µM]
O=C(C[C@@H]1CC[C@@H]2[C@H](COC[C@H](O)CN2C(=O)c2ccc3c(c2)OCO3)O1)NC1CCCC1 | 5[16.7 µM]
CC(C)[C@H](NC(=O)C1CCCC1)C(=O)N1CCC[C@H]1C(=O)NCc1ccccc1 | 9
COC(=O)C1=C(C)N(Cc2cccc(C(F)(F)F)c2)C(=NCc2ccc(C(F)(F)F)cc2)NC1c1ccc(F)cc1 (configuration not stated) | 35
CN1C(=O)c2cc(NS(=O)(=O)c3ccccc3F)ccc2OC[C@H]2O[C@H](CC(=O)NC3Cc4ccccc4C3)CC[C@H]21 | 22[16.7 µM]
C[C@@H]1CN([C@H](C)CO)C(=O)Cc2cc(NC(=O)CCC(F)(F)F)ccc2O[C@H]1CN(C)Cc1ccncc1 | 11[16.7 µM]
O=C(Cc1ccc(NC(=O)C2CCN(C(=O)CCc3ccccc3)CC2)cc1)Nc1cccc(C(=O)N2CCCC2)c1 | 3

Taken from above:
`COC(=O)c1cccc(Nc2cc(C)n(-c3cccc(C(=O)OC)c3)c(=O)c2)c1` @ HIV Env fusion: 15
`C[C@@H]1CN([C@@H](C)CO)C(=O)c2cc(NC(=O)CCCN(C)C)ccc2O[C@@H]1CN(C)Cc1ccc(Oc2ccccc2)cc1` @ HIV Env fusion: -4[16.7 µM]
`C/C=C/c1ccc([C@@H]2[C@H](CO)N(C(=O)CN(C)C)C23CN(C(=O)C2CCCCC2)C3)cc1` @ HIV Env fusion: -7[16.7 µM]
`O=C(C[C@H]1CC[C@@H]2[C@H](COC[C@@H](O)CN2Cc2cc(F)ccc2F)O1)N[C@@H]1CCN(Cc2ccccc2)C1` @ HIV Env fusion: -44[16.7 µM]
`CC(C)[C@H](NC(=O)C1CCCC1)C(=O)N1CCC[C@H]1C(=O)NCc1ccccc1` @ HIV Env fusion: 9

Source: PubChem

This is a subset, so the mix of outcomes need not match the whole.
